Source: PubChem
TRPV1 PAM: HTS Assay for Compounds that Act as Potentiators of the Vanilloid Receptor 1; AID 540277, 2011; hit rate 0.02% among 320,000; potentiation, % at 8.33 µM; TRPV1-expressing cells, Fluo-8 calcium influx, capsaicin EC20 potentiation; host cell line not named in the record; control for the full effect not named in the record; active means potentiation above 80%; inconclusive means 30% to 80%; inactive means below 30%; also: 0% is about no effect
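Cells expressing TRPV1 were dye-loaded with Fluo-8 and read kinetically: 10 s baseline, 3 min after compound (agonist portion), then 2 min after EC20 capsaicin (allosteric enhancer portion). Calcium-bound dye fluorescence at 480/520 nm.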
D2 PAM: Beta-Arrestin HTS for Positive Allosteric Modulators of the Human D2 Dopamine Receptor: Potentiators. D(2) dopamine receptor (Homo sapiens), P14416. DiscoveRx D2 beta-arrestin cells, luminescence, 90 min; 100% = 57 uM dopamine signal. potentiation, % (no concentration beside the values). hit rate 0.23% among 360,000. AID 624464, 2012; active = potentiation of 50% or more; inconclusive = 30% to 50%; inactive = 30% or less;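 also: compound concentration not given in the record; tested on top of an EC20 dose of dopamine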
Target sequence (P14416 whole entry, looked up): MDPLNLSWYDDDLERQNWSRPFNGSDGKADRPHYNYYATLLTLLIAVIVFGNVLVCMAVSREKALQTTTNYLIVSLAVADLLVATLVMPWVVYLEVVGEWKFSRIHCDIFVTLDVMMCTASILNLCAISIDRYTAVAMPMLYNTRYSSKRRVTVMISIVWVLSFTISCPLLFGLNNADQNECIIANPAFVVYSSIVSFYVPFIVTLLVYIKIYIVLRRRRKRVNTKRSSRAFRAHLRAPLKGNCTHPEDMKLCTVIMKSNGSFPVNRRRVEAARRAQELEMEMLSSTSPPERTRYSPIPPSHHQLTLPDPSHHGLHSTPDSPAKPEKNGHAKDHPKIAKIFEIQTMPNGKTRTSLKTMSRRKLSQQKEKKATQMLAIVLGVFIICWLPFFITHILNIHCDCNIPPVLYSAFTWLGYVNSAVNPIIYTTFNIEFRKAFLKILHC
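D2 cells co-treated with compound plus 50 nM dopamine (EC20) for 90 min at 37 deg C to detect potentiation. Beta-arrestin recruitment was read as enzyme-fragment luminescence after 1 h at ambient temperature. Full response was set by 57 uM dopamine.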
TRPML1 inh: qHTS for Inhibitors of the Human Mucolipin Transient Receptor Potential 1 (TRPML1); activity change, negative = inhibition, % (concentration not given with the values); TRPML1-inducible cells, Ca2+ dye fluorescence, FDSS; hits give low values; inhibition of EC80 agonist-evoked calcium signal; hit rate 0.02% among 390,000; Mucolipin-1 (Homo sapiens), Q9GZU1; AID 624415, 2012; in the data active means activity change below about -50%; inconclusive means about -30% to -50%; inactive means above about -30%;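 also: stimulus is agonist 54-4 at its EC80 concentration; % is scaled to controls: 0 for no effect and ±100 for the full control effect; compound concentration not given in the record; the text of the record puts the active cut at -80%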
Target sequence (Q9GZU1 whole entry, looked up): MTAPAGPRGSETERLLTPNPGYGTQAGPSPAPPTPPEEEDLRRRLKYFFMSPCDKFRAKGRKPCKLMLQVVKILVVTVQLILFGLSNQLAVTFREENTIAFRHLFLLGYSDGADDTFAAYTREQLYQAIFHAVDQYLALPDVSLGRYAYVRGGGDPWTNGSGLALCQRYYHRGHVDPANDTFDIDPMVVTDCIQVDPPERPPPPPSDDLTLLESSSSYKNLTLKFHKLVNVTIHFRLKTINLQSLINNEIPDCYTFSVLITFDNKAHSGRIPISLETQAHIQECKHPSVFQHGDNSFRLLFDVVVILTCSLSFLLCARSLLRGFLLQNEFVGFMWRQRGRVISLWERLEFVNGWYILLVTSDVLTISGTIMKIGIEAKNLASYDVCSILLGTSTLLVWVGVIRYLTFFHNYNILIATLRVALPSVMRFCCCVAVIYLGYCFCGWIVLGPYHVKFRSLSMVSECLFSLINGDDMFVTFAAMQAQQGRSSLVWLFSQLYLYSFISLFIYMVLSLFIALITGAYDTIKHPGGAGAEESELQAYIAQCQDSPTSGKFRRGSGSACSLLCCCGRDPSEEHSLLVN
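Calcium fluorescence in TRPML1-DL cells induced overnight with Tet: a 110 s read after compound pin addition, then a 110 s antagonist read after challenge with 54-4 at 4 uM final (EC80).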
TRPML1 agonist: qHTS for Agonists of the Human Mucolipin Transient Receptor Potential 1 (TRPML1) | Mucolipin-1 (Homo sapiens), Q9GZU1 | TRPML1-expressing cells, Ca2+ dye fluorescence, FDSS; host cell line not named in the record; reference of the full effect not given here | activation, % (test concentration not listed) | hit rate 0.12% among 410,000 | AID 624414, 2012; in the data active = activation above about 50%; inconclusive = about 30% to 50%; inactive = below about 30%; also: 0% is about no effect; the text of the record puts the active cut at 80%
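In this qHTS format, compounds were pin-transferred onto Ca8-dye-loaded TRPML1-DL cells induced with Tet overnight, and intracellular Ca2+ fluorescence was recorded kinetically for 110 s after a 10 s baseline. A subsequent 4uM final 54-4 (EC80) addition followed by a second 110 s read served as the antagonist phase.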
CtBP-E1A inh: qHTS Assay for Inhibitors of the CtBP/E1A Interaction; AlphaScreen GST-E1A/His-CtBP binding, 1536-well; hits give low values; control for the full effect not named in the record; CtBP / adenovirus E1A interaction (AlphaScreen); activity change, % (no concentration beside the values); hit rate 0.49% among 340,000; in the data active means activity change below about -65%; inconclusive means about -30% to -65%; inactive means above about -30%; also: % is scaled to controls: 0 for no effect and ±100 for the full control effect; compound concentration not given in the record
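Homogeneous bead-based format: GST-tagged E1A captured on glutathione donor beads, His-tagged CtBP on nickel acceptor beads; compounds precede bead addition by 2 h at 37 °C.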
Six1-Eya2 inh: qHTS Assay for Inhibitors of the Six1/Eya2 Interaction; AlphaScreen GST-Six1/His-Eya2 binding, biochemical; hits give low values; control for the full effect not named in the record; Homeobox protein SIX1 (Homo sapiens) + Protein phosphatase EYA2 (Homo sapiens), …; activity change, % (test concentration not listed); AID 651725, 2012; hit rate 0.56% among 360,000; in the data active = activity change below about -65%; inconclusive = about -30% to -65%; inactive = above about -30%; also: % is scaled to controls: 0 for no effect and ±100 for the full control effect; compound concentration not given in the record
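AlphaScreen with GST-Six1 and His-Eya2 (5X mix: 250 nM and 500 nM), glutathione donor and nickel acceptor beads; buffer 50 mM Tris pH 8.0, 300 mM NaCl, 1 mM TCEP; 1 h at 37 C in the dark.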
Starred values were filed as active, the others as inactive; ? = inconclusive; nt = not tested or not shown.

SMILES | TRPV1 PAM | D2 PAM | TRPML1 inh | TRPML1 agonist | CtBP-E1A inh | Six1-Eya2 inh
CC(C)n1nnc(-c2ccc(OCc3ccccc3F)cc2)n1 | -7 | -1 | 26 | 1.9 | 42 | 40
CCOC(=O)C(C)/C(C)=N/NC(=O)CCC(=O)Nc1cc(C)ccc1C (centres undefined) | 6 | -7 | 0 | -0.9 | nt | -1
CC(C)NC(=O)N(Cc1ccccc1)Cc1cccs1 | -5 | -2 | -4 | -0.5 | 2 | 7
COCCSc1nnc(NC(=O)CS(=O)(=O)c2ccccc2)s1 | -3 | -1 | -11 | 1.4 | 7 | 0
Cc1ccccc1C(C)NS(=O)(=O)c1ccc2c(c1)OCCO2 (centres undefined) | nt | 11 | -11 | -0.5 | nt | 5
CCn1c2ccccc2c2cc(/C=N/NC(=O)c3ccncc3)ccc21 | -9 | -4 | 6 | -0.3 | -15 | -11
CC(Oc1ccc2c3c(c(=O)oc2c1)CCCC3)C(=O)NCc1ccccn1 (centres undefined) | 2 | -9 | -2 | -0.2 | -13 | 5
CC1(c2ccc(OC(F)F)cc2)NC(=O)N(CC(=O)NC2CCCCC2)C1=O (centres undefined) | 9 | -11 | 14 | 1.8 | 1 | 6
O=C(N/N=C/c1cccs1)C1CC(=O)N(c2ccccc2)C1 (centres undefined) | 4 | -3 | -6 | -0.3 | -6 | -2
COC(=O)c1ccc(C2c3c(n[nH]c3C)C(=O)N2c2ccc(C)cc2)cc1 (centres undefined) | nt | -6 | 7 | -1.0 | 2 | -12
Cc1ccc(C(O)c2ncc(-c3ccccc3F)[nH]2)c(C)c1 (centres undefined) | nt | -7 | nt | -0.8 | -14 | 3
CCOC(=O)[C@@H]1[C@H]2COc3cc(OC)ccc3[C@@H]2N2C(=O)N(c3ccc(C(F)(F)F)cc3)C(=O)[C@]12C | ? | -11 | 4 | 0.9 | 1 | -8
Cc1cccc2cc(CN(Cc3cccs3)C(c3nnnn3C3CCCC3)C(C)C)c(=O)[nH]c12 (centres undefined) | 2 | -11 | -1 | -1.0 | 0 | 16
CCc1ccc(CNC(=O)CCc2cn(C)c3ccccc23)cc1 | ? | -17 | -8 | 1.0 | -1 | -6
Cc1ccc(CNC(=S)Nc2cc(C(=O)O)ccc2C)cc1 | 7 | -7 | 5 | 0.0 | 3 | 6
CCS(=O)(=O)c1nc(S(=O)(=O)c2ccc(C)cc2)c(N2CC(C)CC(C)C2)s1 (centres undefined) | -7 | -4 | 0 | -0.7 | 2 | -3
O=C(NCc1ccc2c(c1)OCO2)c1ccc(CS(=O)Cc2cccc(Cl)c2)o1 (centres undefined) | 3 | -7 | 5 | 0.1 | -21 | 0
CC(NC(=O)C(=O)NCCCn1ccnc1)c1ccccc1 (centres undefined) | 4 | -2 | -8 | 2.2 | 2 | 0
Cc1ccc(C(=O)N/N=C\C2CC=CCC2)cc1[N+](=O)[O-] (centres undefined) | -8 | -25 | -8 | -0.6 | -6 | -3
CSCCC(NC(=O)COc1ccccc1)C(=O)N1CCN(c2ccccc2O)CC1 (centres undefined) | 3 | -2 | 5 | -0.5 | 1 | -6

Copied from the list:
In TRPML1 agonist, Cc1ccccc1C(C)NS(=O)(=O)c1ccc2c(c1)OCCO2 (centres undefined) has the entry -0.5
In CtBP-E1A inh, Cc1ccc(C(=O)N/N=C\C2CC=CCC2)cc1[N+](=O)[O-] (centres undefined) has the entry -6
In CtBP-E1A inh, CC(NC(=O)C(=O)NCCCn1ccnc1)c1ccccc1 (centres undefined) has the entry 2
In TRPML1 inh, CC1(c2ccc(OC(F)F)cc2)NC(=O)N(CC(=O)NC2CCCCC2)C1=O (centres undefined) has the entry 14
In CtBP-E1A inh, CC(C)n1nnc(-c2ccc(OCc3ccccc3F)cc2)n1 has the entry 42

More structures follow:
SMILES | TRPV1 PAM | D2 PAM | TRPML1 inh | TRPML1 agonist | CtBP-E1A inh | Six1-Eya2 inh
OCCC1CN(CCCn2cccn2)CCN1C1CCCCC1 (centres undefined) | -1 | -4 | 12 | 0.6 | 3 | 6
CCN(CC)S(=O)(=O)c1ccc(N(C)CCc2ccc(OC)c(OC)c2)nc1 | -1 | -9 | -17 | 1.1 | -1 | 0
Cc1ccc2c(=O)c(C(=O)c3ccc(F)cc3)cn(CC(=O)NCc3ccco3)c2n1 | -13 | 15 | 28 | 1.3 | -1 | -5
O=C(NCc1ccccc1)c1ccccc1NC(=O)C1CCCCC1 | -4 | -16 | 11 | 1.5 | 3 | 6
Fc1cc(F)cc(NC(=S)Nc2ccccc2N2CCOCC2)c1 | -2 | 0 | -12 | -0.2 | -2 | 6
CC(=O)NC1=NC(=O)/C(=C/N2CCOCC2)S1 | 9 | -2 | 9 | 0.0 | 8 | 4
COc1ccc(Cc2nnc(SCC(=O)Nc3ccccc3C#N)o2)cc1 | -4 | -1 | 27 | -0.2 | -2 | -1
CCOc1cc(/C=N/NC(=O)c2c(C)nc3ccc(Cl)cn23)ccc1O | nt | -2 | 0 | 0.2 | -5 | ?
COC(=O)c1[nH]c2ccccc2c1NC(=O)c1c(F)cccc1F | 3 | -5 | -11 | 1.0 | nt | -2
COCCNC(=O)[C@@H]1CCCN1S(=O)(=O)c1cccc2cccnc12 | 4 | -1 | -10 | -0.4 | 1 | 2
O=C(NC(=S)Nc1nc(-c2ccccc2)cs1)c1cccnc1 | -1 | -3 | -15 | 2.0 | -9 | -7
Cc1ccc(OCc2cc(C(=O)NC(C)Cc3cnccn3)no2)cc1C (centres undefined) | 17 | -5 | 7 | -0.8 | 6 | 3
Cc1cc2c(c(=O)n1CC1CCCO1)C(c1ccc3c(c1)OCO3)C(C#N)=C(N)O2 (centres undefined) | 3 | 4 | 16 | 4.3 | -2 | -4
CCCN(CCC)c1ccc(CC(=O)NC(C)Cc2ccccc2)cc1 (centres undefined) | -2 | -19 | -5 | 2.6 | -6 | -18
C=CCN(C(=O)Nc1ccc(Cl)cc1)C1CC(=O)N(c2ccc(OC)cc2)C1=O (centres undefined) | 0 | 0 | 23 | 1.0 | 7 | 0
CCc1ccccc1NC(=O)C1CCN(C(=O)c2ccc([N+](=O)[O-])cc2)CC1 | 1 | -6 | 32 | 0.4 | 1 | 1
CC(CC(=O)Nc1cccc(S(=O)(=O)N2CCCCC2)c1)c1ccccc1 (centres undefined) | -18 | -5 | 0 | 0.2 | 3 | -13
COc1c(Cl)cnn(-c2cccc(C)c2)c1=O | -4 | -2 | -5 | -0.5 | 8 | -2
COc1nnc(-c2ccc(N3CCOCC3)c(NC(=O)c3ccccc3)c2)c2ccccc12 | -3 | -7 | 10 | 3.2 | 2 | -1
N#Cc1ccc(-c2nnnn2-c2ccc3c(c2)OCO3)cc1 | -8 | 11 | 8 | -1.0 | 2 | 0
COCCn1cnc2c1c(=O)n(CC(=O)O)c(=O)n2Cc1ccccc1 | -1 | -4 | -22 | 0.9 | nt | 6
O=C(OCC(=O)N1CCCCC1)c1n[nH]c(=O)c2ccccc12 | 6 | -3 | 1 | -0.3 | 3 | 4
CCCN(Cc1cc2ccc(C)cc2[nH]c1=O)C(=O)c1ccccn1 | -10 | -3 | -8 | 0.8 | -6 | -1
CN(C(=O)c1cc(-c2ccccc2)on1)C1CCCCC1 | -8 | -5 | 10 | -0.5 | 5 | 10
COc1ccc(NC2=NCC(=O)N2c2ccccc2)c(OC)c1 | 13 | 0 | 6 | -0.6 | -1 | 3
CCOc1ccc(NS(=O)(=O)c2ccc3c(c2)CCN3C(=O)C2CCC2)cc1 | 10 | 8 | 19 | 0.4 | -2 | 0
CC1(C)CC(NC(=O)COc2ccc3c4c(c(=O)oc3c2)CCCC4)CC(C)(C)N1 | -4 | -5 | 2 | 0.0 | 5 | -12
CCOc1ccc(/C=N/N2C(=O)C(CC(=O)Nc3ccc(F)cc3F)SC2=NC)cc1OC (centres undefined) | 2 | -5 | 3 | 0.5 | nt | 0
CCC(=O)N1N=C(c2ccc(NS(=O)(=O)CC)cc2)CC1c1ccc(C)cc1 (centres undefined) | 16 | -3 | 8 | 1.4 | nt | 4
CCc1nc2ccc(C(=O)NCc3ccc4c(c3)OCO4)cn2c1N(C)Cc1ccc(OC)cc1 | nt | -16 | nt | -0.7 | -11 | -12
COC(=O)CN(C)C(=O)c1ccccc1OC1CCN(S(C)(=O)=O)CC1 | -5 | 3 | 12 | -0.5 | 6 | 7
CCOC(=O)c1c(C)oc2c1c(C=NCC1CCCO1)c(O)c1ccccc12 (centres undefined) | 7 | 15 | 15 | 1.6 | 2 | -8
CCOc1ccc(N2C(=O)Nc3ccc(Br)cc3C2(O)C(=O)NCCCN(C)C)cc1 (centres undefined) | 28 | -2 | ? | 0.3 | 8 | 1
O=c1c2ccccc2nnn1CSc1nnc(-c2cccnc2)n1-c1ccccc1F | -4 | -12 | -12 | -0.3 | -1 | 1
O=C(/C=N/O)NCC1CCNCC1 | 10 | -4 | 13 | -0.8 | 1 | -3
CC(C)(C)c1ccc(/C=C2\CCn3c2nc2cc(C(=O)O)ccc2c3=O)cc1 | 29 | -7 | -14 | 0.9 | nt | 3
Cc1cc(N2C(=O)c3ccc(C(=O)Nc4ccccc4O)cc3C2=O)no1 | 2 | -10 | -16 | 0.1 | 2 | 2
O=C(COC(=O)c1ccccc1C(=O)N1CCN(c2ccccc2)CC1)NCc1ccccc1 | 5 | -17 | 3 | 0.0 | -1 | -9
O=C(NCc1nnc(SCC(=O)N2CCCC2)o1)c1c(F)cccc1Cl | 6 | 7 | 6 | -0.6 | 3 | 5
CCCCn1c(=O)c(CCC(=O)OCC(=O)Nc2cccc3ccccc23)nc2ccccc21 | 3 | -9 | 6 | 1.4 | -8 | 1
Cc1ccccc1OCC1CN(CN2CCOCC2)C(=O)O1 (centres undefined) | -9 | -22 | 13 | 0.1 | 9 | 4
CCCCn1c(SCC(=O)N2CCC(C)CC2)nc2ccsc2c1=O | -1 | 10 | 30 | 1.6 | -7 | 0

One compound at a time, from the list above:
O=C(NCc1nnc(SCC(=O)N2CCCC2)o1)c1c(F)cccc1Cl across the screens: TRPV1 PAM = 6; D2 PAM = 7; TRPML1 inh = 6; TRPML1 agonist = -0.6; CtBP-E1A inh = 3; Six1-Eya2 inh = 5
CCOc1ccc(/C=N/N2C(=O)C(CC(=O)Nc3ccc(F)cc3F)SC2=NC)cc1OC (centres undefined) across the screens: TRPV1 PAM = 2; D2 PAM = -5; TRPML1 inh = 3; TRPML1 agonist = 0.5; CtBP-E1A inh = nt; Six1-Eya2 inh = 0
